# AmpC inh no det – inhibitors of E. coli AmpC beta-lactamase without detergent; P00811; AmpC nitrocefin hydrolysis, absorbance 480 nm, no detergent; potencies from a single point are estimates; Potency, µM (highest dose often 28.7 µM), inactives show at the highest dose activity change, negative = inhibition; 1.8% of 71,000 active; active = falling curve, for most hits resting on a single point; inconclusive = weak or doubtful change; inactive = flat or rising curve; also: % of control where 0% means no effect; about half of the hits show no inhibition at the top dose; a quarter of the inactives give rising signals
# Target sequence (P00811 whole entry, looked up): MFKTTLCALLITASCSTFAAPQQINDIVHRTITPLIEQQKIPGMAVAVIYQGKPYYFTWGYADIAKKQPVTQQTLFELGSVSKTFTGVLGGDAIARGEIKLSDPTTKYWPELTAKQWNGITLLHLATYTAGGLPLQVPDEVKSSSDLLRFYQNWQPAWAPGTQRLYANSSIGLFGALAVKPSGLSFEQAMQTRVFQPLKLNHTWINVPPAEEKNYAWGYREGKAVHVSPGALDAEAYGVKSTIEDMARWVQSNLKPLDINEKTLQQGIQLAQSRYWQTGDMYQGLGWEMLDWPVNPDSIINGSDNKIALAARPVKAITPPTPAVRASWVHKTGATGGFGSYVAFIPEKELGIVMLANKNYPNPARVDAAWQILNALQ
#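 AmpC, 20 mM phosphate pH 7.0; 15 min cpd preinc, RT; start with nitrocefin (800 uM stock); A480 kinetic read, 20 s intervals, 4 min. No-enzyme wells = negative control.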
# * = called active by the depositor; ? = inconclusive; [ ] = dose if it differs, or a comment. Potency is read from the fitted curve at half-maximal effect. Not all compounds are listed; the hit share may differ from the screen's.
no.	structure	AmpC inh no det
1	COCCOC(=O)C1=C(C)NC(=O)NC1c1ccc(Cl)cc1 (stereo not drawn)	1%
2	O=C(NCCN1CCOCC1)C1CCN(c2nc3ccccc3o2)CC1	20%
3	COC(=O)c1ccc2[nH]c(C)cc(=O)c2c1	-8%
4	CC1CCCC(C2(O)C(=O)Nc3ccccc32)C1=O (stereo not drawn)	10%
5	COc1ccc2c(Cl)c(C(=O)NC3CCS(=O)(=O)C3)sc2c1 (stereo not drawn)	18%
6	COc1cccc(C(=O)Nc2cc(C)c3c(=O)oc4ccccc4c3n2)c1	13%
7	CC(NO)C(C)(C)NO (stereo not drawn)	-2%
8	Cn1c(-c2ccc(F)cc2)cnc1NCc1ccc(C#N)cc1	-4%

# The final 2 records of the section above come first, to join the parts.
no.	structure	AmpC inh no det
7	CC(NO)C(C)(C)NO (stereo not drawn)	-2%
8	Cn1c(-c2ccc(F)cc2)cnc1NCc1ccc(C#N)cc1	-4%
9	COc1ccccc1N1CCN(C/C=C/c2ccc(N(C)C)cc2)CC1	45%
10	COc1ccccc1NS(=O)(=O)c1ccc(OC)c(OC)c1	5%
11	Cc1cc(Nc2ccc(F)cc2C)n2nc(C)nc2n1	17%
12	C=CCn1c(=O)c2ccccc2n2c(Sc3nnnn3-c3ccccc3)nnc12	-9%
13	Cc1ccccc1NC(=O)c1ccc(F)c(S(=O)(=O)N2CCN(c3ccccn3)CC2)c1	4%
14	CC(=O)COc1ccc2c3c(c(=O)oc2c1)CCCC3	26%
15	CCCCSCc1nc2nc(Cl)c(Cl)nc2[nH]1	17%[5.75 µM]
16	O=C(O)Cc1nc2nc3c(c(=O)n2[nH]1)CCCC3	-12%

# Structures listed so far containing fluorine, in the order listed:
no.	structure	AmpC inh no det
8	Cn1c(-c2ccc(F)cc2)cnc1NCc1ccc(C#N)cc1	-4%
11	Cc1cc(Nc2ccc(F)cc2C)n2nc(C)nc2n1	17%
13	Cc1ccccc1NC(=O)c1ccc(F)c(S(=O)(=O)N2CCN(c3ccccn3)CC2)c1	4%

# Additional entries
no.	structure	AmpC inh no det
17	N#Cc1nc(Cc2cccc3ccccc23)oc1N1CCCCC1	56%
18	COc1ccc(S(=O)(=O)Cc2ccc(C(=O)NC3CCCC3)o2)cc1	4µM*[single pt active]
19	COc1ccc(N(CC(=O)NC2CCCC2)C(=O)Cn2nnc(-c3ccc(F)cc3)n2)cc1OC	51%
20	CN1CC[C@@]2(CCCN(C(=O)c3ccco3)C2)C1	-3%
21	O=C(O)/C=C1\NC(=O)c2ccccc21	-1%
22	O=c1[nH]c(N2CCc3ccccc3C2)nc2c1CCC2	13%
23	O[C@@](CCN1CCCC1)(c1ccccc1)C1CCCCC1	-2%[12.8 µM]
24	Cc1cc(C)nc(Nc2ncc(O)n2-c2ccc(C)c(Cl)c2)n1	-4%
25	Clc1ccccc1-c1nc(NCCN2CCOCC2)c2ccccc2n1	19%
26	Cc1occc1C(=O)Nc1ccc2c(c1)OCO2	-12%
27	O=C(c1ccccc1)N1CCN(Cc2c[nH]c3ccccc23)CC1	19%
28	C=CCn1c(CCCNC(=O)C(C)(C)C)nc2ccccc21	29%
29	O=C(OCC(=O)N1CCN(c2ccccc2)CC1)c1ccccn1	14%
30	CC(=O)c1cccc(NC(=O)N2CCCC2C(=O)Nc2c(C)cccc2C)c1 (stereo not drawn)	-6%
31	COCCNC(=O)C1CCC(Cn2c(=S)[nH]c3ccccc3c2=O)CC1 (stereo not drawn)	20%
32	S=c1[nH]nc(-c2cccnc2)o1	6%
33	O=C(Nc1ccccc1)N1CCSCC1	1%
34	Cc1ccc(C)c(NS(=O)(=O)c2cc(Br)cnc2N)c1	-14%
35	Cc1ccc(CNC(=O)c2cn(C3CCCC3)c(=O)c3c2c2ccccc2n3C)o1	78%
36	CCOC(=O)c1c(C)n(C)c2ccc(OCC(O)CN3CCC(C)CC3)cc12 (stereo not drawn)	44%
37	COc1cc(OC)c(Cl)cc1N	-2%
38	O=C(CC(c1ccccc1)c1ccccc1O)NCCN1CCOCC1 (stereo not drawn)	1%
39	O=C(c1ccc(N2CCNCC2)cc1)c1cccnc1	6%
40	CCn1c(C2CC(=O)N(Cc3ccccc3)C2)nc2ccccc21 (stereo not drawn)	59%
41	CC(=O)NCc1cccc(CNC(C)=O)n1	-6%
42	O=C1OCc2cc(NC(=O)C3COc4ccccc4O3)ccc21 (stereo not drawn)	-18%
43	O=C(COC(=O)C(O)c1ccccc1)NC12CC3CC(CC(C3)C1)C2 (stereo not drawn)	42%
44	N#CCCn1c(=O)c(-c2ccccc2)nc2cnc(N3CCOCC3)nc21	5%
45	O=C(CSc1ncc(-c2ccccc2)n1-c1ccccc1)NCc1ccco1	7%
46	CCOc1ccc(NC2c3ccccc3C(=O)N2Cc2ccco2)cc1 (stereo not drawn)	39%
47	Cc1cc(C)nc(NC(=O)CSc2ccccn2)n1	0%
48	COCc1cc(C2C(C(=O)c3ccco3)=C(O)C(=O)N2CCOCCO)ccc1O (stereo not drawn)	-13%
49	CC(C)C[C@@H](CC(=O)N[C@@H](CCC(=O)O)CC(=O)O)NC(=O)[C@@H]1CNCC[C@H]1NC(=O)C[C@@H](NC(=O)C[C@H](CO)NC(=O)[C@@H]1CCCC[C@H]1N)C(C)C	-2%
50	Cc1cc(CNC(=O)[C@@H]2C[C@H]2[C@@H](NP(=O)(c2ccccc2)c2ccccc2)c2ccccc2)nn1C	141%
51	C[N+](C)(C)[C@@H](C1=CCCC1=O)c1ccccc1	-5%[5.75 µM]
52	C[C@@H]1O[C@@H](O[C@H]2C[C@@H](O)[C@]3(CO)[C@@H]4[C@@H](O)C[C@]5(C)[C@H](C6=CC(=O)OC6)CC[C@@]5(O)[C@H]4CC[C@@]3(O)C2)[C@H](O)[C@H](O)[C@@H]1O	-9%
53	O=C(C1CCN(C2CC(=O)N(c3cccc(Cl)c3)C2=O)CC1)N1CCCCCC1 (stereo not drawn)	111%
54	O=C(Nc1ncc(Cc2ccccc2)s1)c1cccs1	-18%
55	C=CCn1c(NC(=O)c2ccco2)c(S(=O)(=O)c2ccccc2)c2nc3ccccc3nc21	-3%
56	CC(=O)/C=C/c1ccccc1	-3%
57	Cc1nn(-c2ccccc2)c2nc(-c3ccncc3)cc(C(=O)NCc3ccco3)c12	77%
58	NC1CCCCC1N=Cc1c(O)n(CCc2ccc(F)cc2)c(=O)[nH]c1=O (stereo not drawn)	7%
59	Nc1nc(CSc2n[nH]c(-c3ccccc3)n2)nc(Nc2ccccc2)n1	-9%
60	CCc1ccc(CNC(=O)CN2C(=O)COc3ccccc32)cc1	-4%
61	O=C(NCc1ccccc1)C1CCN(S(=O)(=O)c2cccc3cccnc23)CC1	13%
62	CSc1nc2ccc(NC(=O)C3CC(=O)N(Cc4ccco4)C3)cc2s1 (stereo not drawn)	49%
63	CCOC(=O)c1cccnc1SCc1cc(=O)n2ccccc2n1	22%
64	CCCCn1nnnc1SCC(=O)c1ccc(C)c(C)c1	23%
65	COCCN1Cc2cccc(C(=O)NCc3ccccn3)c2C1=O	11%
66	CC(C)c1ccc(OCC(=O)N2CCN(C)CC2)c(Br)c1	55%
67	COc1ccc(OCC(=O)N2CCN(Cc3c[nH]c4ccccc34)CC2)cc1	97%
68	CC(C(=O)NCc1cccs1)n1cccc1 (stereo not drawn)	-1%
69	Cc1cc(Br)c2c(c1)=C(c1sc(N3CCCCCC3)nc1O)C(=O)N=2	-10%
70	COC(=O)[C@@]1(Cc2ccc(OC)cc2)[C@H]2c3cc(C(=O)N(C)C)n(Cc4ccc(S(C)(=O)=O)cc4)c3C[C@H]2CN1C(=O)c1ccccc1	192%
71	Cc1ccccc1NS(=O)(=O)c1cc(S(C)(=O)=O)ccc1Cl	-8%
72	CCOc1ccccc1NC(=O)CSc1ncnc2c1oc1ccccc12	22%

# Next entries follow:
no.	structure	AmpC inh no det
73	CCN(CC)CCCCn1c(-c2ccccc2)nc2c(NCCOC)nc(C)nc21	4%
74	COc1ccccc1NC(=O)C1(C)Cc2ccccc2C(=O)O1 (stereo not drawn)	4µM*[single pt active]
75	Cc1ccnc(N2CCC(C(=O)Nc3ccc4c(c3)CCC4)CC2)n1	11%
76	CCCCc1ccc(NC(=O)C2CCCO2)cc1 (stereo not drawn)	20%
77	c1ccc(N2CC[C@@]3(CCCNC3)C2)nc1	118%
78	O=C1[C@@H]2CSCN2C(=O)CN1CCc1cccc(F)c1	26%
79	CC1CN(O)C2CCc3nonc3C12O (stereo not drawn)	-9%
80	CC(C)CNC(=O)c1cc(-c2ccc(Cl)c(Cl)c2)on1	-16%
81	CNc1cc(C)nc(-n2nc(C)cc2C)n1	-10%
82	Cc1cccc(CNc2nc(-c3ccc4c(c3)OCO4)nc3ccccc23)c1	?
83	O=C(CSc1nnc(CN2CCOCC2)n1-c1ccccc1)N1CCc2ccccc21	117%
84	O=C(CSc1nnnn1-c1ccc(Cl)cc1)NC(=O)Nc1ccc2c(c1)OCCO2	?
85	COc1cccc(C2NC(=O)NC(C)=C2C(=O)Nc2ccccc2C)c1 (stereo not drawn)	2%
86	CCOC(=O)N1CCN(C(=O)Nc2sc3nc4n(c(=O)c3c2C)CCC(C)CC4)CC1 (stereo not drawn)	69%
87	CCCc1nc2oc3cc(OC)ccc3c(=O)c2c(=O)n1Cc1ccco1	31%
88	CCOC(=O)C1CCCN(C(=O)CCC(=O)Nc2ccc3nc(N4CCOCC4)cc(C)c3c2)C1 (stereo not drawn)	103%

# Among those listed so far, these contain bromine.
no.	structure	AmpC inh no det
34	Cc1ccc(C)c(NS(=O)(=O)c2cc(Br)cnc2N)c1	-14%
66	CC(C)c1ccc(OCC(=O)N2CCN(C)CC2)c(Br)c1	55%
69	Cc1cc(Br)c2c(c1)=C(c1sc(N3CCCCCC3)nc1O)C(=O)N=2	-10%

# Remaining list, next part.
no.	structure	AmpC inh no det
89	CN1CCN(C(=O)c2cc3c(s2)-c2ccccc2S(=O)(=O)C3)CC1	4µM*[single pt active]
90	CCn1cc(Br)c(-c2nc3ccccc3c(=O)n2N)n1	3%
91	CC(=O)Nc1cc2ccccc2oc1=O	-5%[12.8 µM]
92	CCOc1ccc(-c2nnn(CC(=O)NCc3ccc(OC)cc3)n2)cc1OCC	14%
93	CN1C(=O)C(Cc2c[nH]c3ccccc23)C(=O)N(C)C1=O	18%
94	COc1ccc(-c2cc(C(F)(F)F)nc(N3CCOCC3)n2)cc1OC	100%
95	O=C(NCCc1ccccc1)c1ccc2c(c1)N(Cc1ccccc1)C(=O)CS2=O (stereo not drawn)	6%
96	CC1(C)CC(=O)c2cc(C(=O)Nn3cnnc3)c(=O)n(-c3ccccc3)c2C1	-11%
97	CC(=O)c1cccc(NC(=O)N2CCCC2C(=O)NC2CCCCC2)c1 (stereo not drawn)	10%
98	CC1Cc2cc(/C(O)=C3/C(=O)C(=O)N(CCCN(C)C)C3c3ccncc3)ccc2O1 (stereo not drawn)	2%
99	CCC12CN(C(=O)c3ccc(OC)cc3)CC(CC)(CN(C(=O)c3ccc(OC)cc3)C1)C2=O	67%
100	Cc1c(C(=O)Nc2ccccc2)sc2nc(-c3ccccc3)cn12	3%
101	O=C(O)CCc1nnc2n(Cc3ccc(F)cc3)c(=O)c3ccccc3n12	6%
102	Cc1ccc(Nc2nc(N)nc(CN3CCN(C)CC3)n2)cc1	4%
103	O=C(OCC(F)(F)C(F)F)c1ccccc1C(=O)Oc1ccc(F)cc1F	7%
104	O=C(c1cccs1)N(Cc1ccco1)Cc1cc2ccccc2[nH]c1=O	1%
105	CCC1(C)Cc2c(sc3c2c(=O)n(C)c2nnc(SCC(=O)c4ccccc4)n32)CO1 (stereo not drawn)	-9%
106	C[C@@](N)(C(=O)O)c1cccc(CC(=O)O)c1	3%
107	c1ccn2c(SCc3ccc4c(c3)OCCO4)nnc2c1	2%
108	COC(=O)[C@H](Cc1ccccc1)NC(=O)[C@@H](N)CC(=O)O	1%
109	Cc1occc1-c1nnc(SCC(=O)c2ccc(F)cc2)n1Cc1ccco1	-8%
110	Cc1ccc(N(CC(=O)N2CCc3ccccc32)C2=NC(=O)CS2)cc1	79%
111	Cc1ccc(C(=O)CC2(O)C(=O)N(Cc3ccc4c(c3)OCO4)c3ccccc32)cc1 (stereo not drawn)	17%
112	CCN(CC)S(=O)(=O)c1ccc(S(=O)(=O)N2CCN(CCC#N)CC2)cc1	-2%
113	COCCN(CCOC)C(=O)c1cc2c(=O)n3ccccc3nc2s1	18%
114	NCCNS(=O)(=O)c1ccc(N)cc1	5%[5.75 µM]
115	CCOC(=O)CSc1nnc(-c2ccncc2)o1	10%
116	CCc1ccc(OC)c(S(=O)(=O)Nc2ccccc2C)c1	8%
117	COc1c(-c2ccc(O)c(O)c2)oc2cc(O)cc(O)c2c1=O	-22%
118	COc1ccc(-n2nnnc2SCC(=O)N2CCOCC2)cc1	13%
119	Cc1cc(C)c(S(=O)(=O)Nc2ccc(OCC(=O)O)cc2)c(C)c1	5%
120	O=C(O)c1ccc(N2CCCCCC2)c(N2C(=O)c3ccccc3C2=O)c1	-5%
121	CS(=O)(=O)N1CCCC(C(=O)NCCCN2CCN(Cc3ccccc3)CC2)C1 (stereo not drawn)	-6%
122	CCCN1C(=O)NC2(O)C(=O)c3ccccc3C12O (stereo not drawn)	-20%
123	CC(C)NC(=O)c1ccccc1NC(=O)CN(c1ccc2c(c1)OCO2)S(C)(=O)=O	5%
124	Cc1cccc(C#N)c1	-6%
125	COc1cccc(-c2cncnc2NC2CCNCC2)c1	-19%
126	Fc1cccc(Cl)c1/C=N\N=C1c2ccccc2-c2ccccc21	-9%[5.75 µM]
127	CC(C)(O)C1=NOC(c2ccccc2)C1 (stereo not drawn)	3%
128	COC(=O)c1cccc(NC2CC(=O)N(c3ccc(OC)c(OC)c3)C2=O)c1 (stereo not drawn)	8%
129	COC(=O)C1=C(C)NC(=O)CC1c1ccccc1F (stereo not drawn)	1%
130	Cc1ccc(OP(=O)(Oc2ccc(C)cc2)N2C=Cc3ccccc3[C@H]2C#N)cc1	-13%[5.75 µM]
